High-throughput results as filed in PubChem.
T cruzi repl = inhibitors of intracellular T. cruzi growth, primary screen, luminescence, NIH3T3 host cells | AID 1885, 2009 | 300,000 compounds, 1.4% hits | T. cruzi beta-gal in NIH3T3, 90 h | inhibition, % (no concentration beside the values);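 active = mean inhibition across valid replicates above about 55%, limit read from the data; inconclusive = mean below that limit but half or more replicates reach it; inactive = mean below it, under half of replicates reach it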;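 note: signal also drops with host cell toxicity which is not excluded here; 0% = plate median of DMSO wells and 100% = zero luminescence signal; higher percent means less beta-gal luminescence so fewer parasites; stock transfer was 50 nL into about 50 µL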
Beta apoptosis = inhibitors of cytokine-induced beta cell apoptosis, primary screen, luminescence; protection from apoptosis, % (concentration not given with the values); INS-1E cytokine-induced death, ATP luminescence, 48 h; percent of positive-control rescue, neutral wells zero; 300,000 compounds, 0.8% hits;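 active = all replicates at 75% or more, or half of them and the mean; inconclusive = half reach 75% but not the mean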;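 note: 0% = cytokine-treated negative control wells and 100% = positive control rescue; higher means more ATP so stronger rescue from cytokine killing; wells of about 40 µL received 100 nL stock; the first replicate is given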
Calb FLC = C. albicans growth inhibition with fluconazole, primary screen, CaCi-2 strain, Alamar Blue fluorescence | C. albicans CaCi-2 (fluconazole-resistant clinical isolate) + fluconazole, 48 h | growth inhibition, % (test concentration not listed) | AID 1979, 2009 | 300,000 compounds, 0.57% hits;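 active = most replicates above 75%; inconclusive = exactly half above 75%; inactive = most below 75%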;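 note: all wells also contain fluconazole at 8 µg/ml as a sub-toxic cotreatment; 0% = median of DMSO wells and 100% = median of geldanamycin control wells; wells of about 8 µL received 7.5 nL stock; the first replicate is given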
Vif TR-FRET = inhibitors of Vif binding to APOBEC3G peptide, primary screen, biochemical, TR-FRET, GST-Vif 1-94, biotin-A3G peptide, dose response retest (AID 1117319); Virion infectivity factor (Human immunodeficiency virus type 1 group M subtype B (isolate …; 260,000 compounds, 0.57% hits; TR-FRET GST-Vif / biotin-A3G peptide binding; higher % means a stronger effect; test concentration not given here; strong numbers were not always called active; one-dose inhibition, %; IC50 in µM for titrated hits;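 active = above the screen mean plus three standard deviations and confirmed in dose response; inconclusive = results disagree or hit not tested in dose response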;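 note: Vif residues 1-94 fused to GST binding biotinylated APOBEC3G peptide 110-148; 0% = full assay without inhibitor and 100% = GST in place of GST-Vif; retest series ran down from 100 µM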
Bfl-1 A1 inh = caspase 3/7 activation in MEF A1-2A-BIM cells, primary screen, A1 inhibitor project, cell-based, luminescence, HTS; 330,000 compounds, 0.066% hits; AID 2462, 2010; Caspase-Glo 3/7 luminescence, 3 h; percent of clofoctol response, vehicle zero; caspase activation, % (no concentration beside the values);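 active = over half of replicate activation scores above 10%, or exactly half above 10 with the replicate mean above 10; inconclusive = replicate mean below 10 yet half the replicates above 10; inactive = over half of replicates below 10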;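 note: wells of about 30 µL received 50 nL stock; many hits fall short of the cut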
RanGTP-Impb inh = inhibitors of RanGTP-importin-beta interaction, primary screen, biochemical, FRET, CFP-Ran, YFP-importin-beta, homogeneous; inhibition, % (concentration not given with the values); cell-free CFP-Ran/YFP-importin-beta FRET ratio; 300,000 compounds, 1.1% hits; Ran GTPase (GTP-bound) - importin-beta complex; AID 2216, 2009;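 active = most replicates above 15%; inconclusive = exactly half above 15%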;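 note: 0% = DMSO wells and 100% = Ran loaded with GDP instead of GTP; wells of about 40 µL received 100 nL stock; the first replicate is given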
LANA-H2B inh = blockers of LANA interaction with H2A/H2B – biochemical, FP readout, HTS, primary screen | cell-free LANA-H2A/H2B peptide, fluorescence polarization | inhibition, % (test concentration not listed) | 320,000 compounds, 0.6% hits | AID 2629, 2010; in the data active = inhibition mostly above about 10%, no sharp cut-off; inactive = mostly below about 6.7%;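 note: stock transfer was 7.5 nL into about 10 µL; 0% = median of vehicle wells and 100% = median of positive control wells; one replicate is shown; the record names a cut of 25% in any replicate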
Target sequence (Q9QR71 whole entry, looked up): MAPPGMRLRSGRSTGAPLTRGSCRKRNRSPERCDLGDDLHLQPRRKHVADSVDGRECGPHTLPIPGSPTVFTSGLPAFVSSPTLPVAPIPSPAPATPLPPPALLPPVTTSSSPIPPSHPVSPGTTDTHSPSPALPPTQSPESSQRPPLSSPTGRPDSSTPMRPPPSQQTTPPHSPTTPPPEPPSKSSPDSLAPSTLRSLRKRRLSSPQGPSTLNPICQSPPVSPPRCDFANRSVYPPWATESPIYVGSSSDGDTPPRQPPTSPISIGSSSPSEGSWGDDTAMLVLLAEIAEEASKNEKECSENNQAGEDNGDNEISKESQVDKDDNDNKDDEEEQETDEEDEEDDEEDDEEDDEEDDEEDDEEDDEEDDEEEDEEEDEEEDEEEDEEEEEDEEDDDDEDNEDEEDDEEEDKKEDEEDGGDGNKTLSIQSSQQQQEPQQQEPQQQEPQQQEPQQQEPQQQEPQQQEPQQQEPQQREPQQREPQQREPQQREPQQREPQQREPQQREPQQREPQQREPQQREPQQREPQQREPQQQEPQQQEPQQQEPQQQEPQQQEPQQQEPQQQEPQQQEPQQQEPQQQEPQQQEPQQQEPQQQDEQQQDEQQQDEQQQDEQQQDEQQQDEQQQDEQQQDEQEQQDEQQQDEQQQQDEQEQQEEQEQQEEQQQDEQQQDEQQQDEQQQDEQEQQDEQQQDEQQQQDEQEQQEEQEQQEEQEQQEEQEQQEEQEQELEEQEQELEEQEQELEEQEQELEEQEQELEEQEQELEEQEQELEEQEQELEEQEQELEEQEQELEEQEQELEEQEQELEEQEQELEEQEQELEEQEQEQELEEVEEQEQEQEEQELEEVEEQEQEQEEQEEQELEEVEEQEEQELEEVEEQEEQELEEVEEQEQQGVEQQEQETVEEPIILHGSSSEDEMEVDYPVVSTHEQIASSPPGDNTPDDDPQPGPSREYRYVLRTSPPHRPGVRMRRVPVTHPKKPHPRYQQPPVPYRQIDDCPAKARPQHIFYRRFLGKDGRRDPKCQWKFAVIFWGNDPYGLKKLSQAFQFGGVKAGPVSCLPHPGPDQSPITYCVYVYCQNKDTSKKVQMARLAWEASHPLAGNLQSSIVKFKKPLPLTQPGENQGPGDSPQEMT
MLL AF4-AF9 inh = inhibitors of AF4 peptide binding to AF9, primary screen, biochemical, AlphaScreen, biotin-AF4 peptide, FLAG-AF9, single point; Protein AF-9 (Homo sapiens), P42568; inhibition, % at 10 µM; 350,000 compounds, 0.47% hits; AID 651704, 2012;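 active = every replicate reaching a set inhibition limit, whatever the replicate mean, cut at about 25% in these data; inconclusive = mean inhibition reaches that limit but some replicates miss it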;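 note: 0% = plate neutral control median and 100% = total signal loss; the record names both 10 and 1 µM as test concentration; the first replicate is given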
Starred values were filed as active, the others as inactive; ? = inconclusive; . = not tested or not shown; & = joins results of further samples.

Sequence of screens: T cruzi repl, Beta apoptosis, Calb FLC, Vif TR-FRET, Bfl-1 A1 inh, RanGTP-Impb inh, LANA-H2B inh, MLL AF4-AF9 inh
COC(=O)c1cccc(C(=O)N2CCC(CO)(Cc3ccccc3Cl)CC2)c1
    0, -5, -3, ., 2.8, 1.9, 2.6, 0.7
COc1ccc(/C=C2\N=C(c3ccccc3Cl)NC2=O)cc1
    ., ., 0, 4%, ., 3.4, ., 11
CCCCC1(COC(=O)CCC(=O)O)C(=O)N(c2ccccc2)N(c2ccccc2)C1=O
    ., -10, ., ., -0.1, ., 3.1, -5.5
CC(=O)N1CCN(S(=O)(=O)c2ccc(C)c([N+](=O)[O-])c2)C1C(C)C (stereo not given)
    -10, -6, 4, 0%, 0.3, -1.1, 4.6, 1.2
O=C(NC1C2CCCC1CN(C1CC1)C2)c1ccc(Cl)cc1 (stereo not given)
    27, -6, 28, ., 1.3, -2.0, 0.2, 2.0
Cc1c(CCC(=O)NCCCn2ccnc2)c(=O)oc2cc3oc4c(c3cc12)CCCC4
    45, 3, -3, ., -0.4, 2.0, 6.1, -18
CC(C)=CCN1CCN(Cc2cccc3nccnc23)CC1CCO (stereo not given)
    11, -3, 4, 21%, 0.4, 2.5, 2.4, 3.7
S=C(NCC1CCCCC1)Nc1ccc(Oc2ccccc2)cc1
    55*, 5, -82, -8%, -0.1, 3.9, 3.0, 1.6
O=[N+]([O-])C1=CC=C2C(=NC3(CCCCC3)N2O)C1=NCCc1ccccc1
    4, ., 2, -7%, ., 0.4, ., 4.2
COC(=O)c1ccc(CO/N=C(\NC(C)=O)c2nonc2NC(C)=O)cc1
    -2, -6, -8, 7%, -0.1, 6.9, ., .
CC1CC(C)(C)NC(=S)N1CCC(=O)Nc1ccc2c(c1)OCCO2 (stereo not given)
    -1, -6, -8, -1%, 1.1, -5.8, -0.6, -1.8
Cc1ccc2c(c1)N(C(=O)CCC(=O)NCc1cccnc1)CC(C)O2 (stereo not given)
    -4, -5, 0, ., 0.0, -0.5, -0.4, -8.4
CCC[C@@H]1CCCO[C@@](C(=O)NCc2cc(C)n(C)n2)(C(F)(F)F)C1
    -5, -9, 17, ., 0.3, 3.1, -1.7, -3.5
O=C(NCCc1ccccc1)C(c1ccccc1F)N(C(=O)c1csnn1)C1CC1 (stereo not given)
    7, -9, -4, ., -0.8, 0.7, -1.3, -2.1
C#CCN(Cc1ccco1)C(=O)c1cc(COc2ccc(F)cc2Cl)on1
    20, 9, -12, -2%, -0.5, -1.0, -2.6, -0.6
O=C1NC(=NCc2ccccc2)S/C1=C/c1ccc(O)cc1
    -15, 10, -17, 0%, -0.1, -2.0, -1.6, .
COc1ccc(N(CC(=O)N2CCN(Cc3ccccc3)CC2)S(=O)(=O)c2ccccc2)cc1
    -5, -3, -5, -3%, -0.6, 6.1, -0.4, 4.3
O=C(N/N=C/c1ccc2nccnc2c1)c1ccncc1
    0, -4, -10, 6%, 0.1, -1.7, -0.5, -1.5
CCC(C)NS(=O)(=O)c1ccc(S(=O)(=O)N2CC=C(c3ccc(F)cc3)CC2)cc1 (stereo not given)
    31, 14, -1, ?, -0.8, 0.2, -1.9, 0.3
COc1ccc(/C=N/NC(=O)CN2CCCCCCC2)c(C)c1C
    -1, -5, 0, -2%, 0.5, 0.4, 9.4, -3.2
COc1cccc(N2CCN(c3c4c(nc5ncnn35)CCC4)CC2)c1
    -22, 50, 22, -6%&-2%, 0.2, 10, -0.6, .
COC(=O)c1cc(S(=O)(=O)Nc2cccc(S(N)(=O)=O)c2)oc1C
    -10, -7, 2, 5%, -0.4, -3.1, -2.2, .
COC(=O)C(C(=O)OC)N1C(=O)CCC1=O
    -2, -2, 3, 0%, 0.8, -3.5, 1.9, -0.6
O=C(O)c1ccc(N2CCS(=O)(=O)CC2)cc1
    -3, -2, -3, -6%, 0.5, ., -3.6, -1.1
Cc1ccc2nsnc2c1NC(=O)CCl
    9, -8, 17, 12%, -1.9, 0.6, 2.1, -1.4
Cn1cccc1/C=N/N1CCN(Cc2ccc(Cl)cc2)CC1
    9, -3, -22, 31%, -0.3, -3.2, 5.7, 3.6
CCCCC(=O)Nc1ccc2c(c1)OCCO2
    -4, -1, -5, 1%, -2.0, -1.4, 1.0, .
C(=C\c1ccccc1)/CN1CCN(Cc2ccc3c(c2)OCCO3)CC1
    64*, ., 2, 9%, ., 3.0, ., .
O=C(NCCCNc1ccnc2cc(Cl)ccc12)c1ccccc1F
    10, 3, 1, -3%, 0.4, 1.8, -3.0, 1.8
O=c1[nH]c2ccccc2cc1CN(Cc1ccco1)S(=O)(=O)c1ccccc1
    14, 5, 18, ., -0.5, 1.3, -2.9, 3.2

3 entries from above, bar-delimited.
structure | T cruzi repl | Beta apoptosis | Calb FLC | Vif TR-FRET | Bfl-1 A1 inh | RanGTP-Impb inh | LANA-H2B inh | MLL AF4-AF9 inh
COc1ccc(/C=C2\N=C(c3ccccc3Cl)NC2=O)cc1 | . | . | 0 | 4% | . | 3.4 | . | 11
CCCCC1(COC(=O)CCC(=O)O)C(=O)N(c2ccccc2)N(c2ccccc2)C1=O | . | -10 | . | . | -0.1 | . | 3.1 | -5.5
CC(=O)N1CCN(S(=O)(=O)c2ccc(C)c([N+](=O)[O-])c2)C1C(C)C (stereo not given) | -10 | -6 | 4 | 0% | 0.3 | -1.1 | 4.6 | 1.2

Next entries follow.
Sequence of screens: T cruzi repl, Beta apoptosis, Calb FLC, Vif TR-FRET, Bfl-1 A1 inh, RanGTP-Impb inh, LANA-H2B inh, MLL AF4-AF9 inh
CC(C)(C)NC(=O)Nc1nnc(SCC(=O)NC2CCCCC2)s1
    -4, 5, 5, 4%, 0.3, -2.6, ., -7.3
COC(=O)c1cccn(CC(=O)c2ccc(Cl)cc2Cl)c1=O
    -3, -3, 10, 5%, -0.3, 5.7, -2.4, 0.2
Cc1cccc(N/C=C/c2onc(C)c2[N+](=O)[O-])c1
    -9, 7, 10, 3%, -6.0, -14, -2.1, .
COC(C/C=C\[C@@H](O)[C@@H](C)OCc1ccccc1)OC
    9, 1, -3, ., -1.0, ?, -9.7, 1.4
Cc1ccn2c(=O)nc(SCC(=O)N3CCCCC3)nc2c1
    0, ., -3, 14%, 0.7, 5.2, 0.6, 0.9
CCOC(=O)C(=CNc1cc(OC)ccc1-n1cccc1)C(=O)OCC
    2, -1, 5, 6%, -0.2, -4.3, 0.5, .
O=S(=O)(/C=C/c1ccccc1)Nc1ccc(F)cc1
    4, -2, -8, -3%, -1.2, 2.9, 3.9, 0.1
COc1ccc(/C=C/C(=O)NC(C)CCc2ccccc2)cc1 (stereo not given)
    -1, -8, 20, 0%, 0.9, 1.9, -1.6, .
CC(=O)c1ccc(Nc2c(C)n(C)n(-c3ccccc3)c2=O)cc1
    -7, -2, 4, 1%, -1.4, 6.5, -2.9, -4.4
O=C(c1ccc([N+](=O)[O-])c(CS(=O)(=O)c2ccc(Cl)cc2)c1)N1CCCC1
    -5, 0, -19, ?, -0.2, 2.1, 5.0, 0.8
Cc1cc(C)nc(N/N=C/c2cc(Br)ccc2O)n1
    11, 88*, -3, 9%, 0.4, -2.2, 15, 6.3
CN(C)CCCNC(=S)NCCNc1nc2cc3c(cc2cc1C#N)OCO3
    -1, -1, -4, -1%, 0.7, 72*, -5.0, -2.8
O=C(CN1CCN(Cc2ccc(F)cc2)CC1)Nc1ccccc1F
    19, -3, -2, -5%, 0.0, -3.3, 2.9, -3.7
Cc1oc(C)c(C(N)=O)c1C(N)=O
    -5, -2, 0, -2%, 0.7, 0.7, -2.9, .
Cc1ccn2cc(CCNC(=O)c3ccc(Br)o3)nc2c1
    1, -8, 6, -7%, 0.4, 3.2, 3.9, -16
CSc1nnc(N2C(=O)C(O)=C(C(=O)c3ccco3)C2c2ccccc2F)s1 (stereo not given)
    -13, -1, -2, ., 0.5, 1.1, 4.0, -6.2
O=C(CN1C(=O)COc2ccc(Cl)cc21)Nc1ccc2c(c1)OCCO2
    -8, -4, 0, 7%, -0.3, 5.7, 2.4, ?
CCc1nnc(NCn2nc(C)cc2C)s1
    7, -4, 8, 16%, -0.1, 5.9, -2.3, .
CC1(C)CC(NC(=O)c2cccc(S(=O)(=O)N(Cc3ccccc3)c3ccccc3)c2)CC(C)(C)N1
    49, 5, -2, -9%, -0.3, 0.8, 0.7, 14
CCOc1ccc(CCNC(=O)COC(=O)c2ccc(S(C)(=O)=O)cc2)cc1OCC
    -5, 3, -9, ., 0.1, ., -2.9, 4.5
CCCNC(=O)CSc1ccc(S(=O)(=O)N2CCCC2)cn1
    ., 1, ., 5%, -0.6, ., ., -2.0
COc1ccccc1CN(CC(=O)NCc1ccc2c(c1)OCO2)C(=O)c1ccc2c(c1)OCCO2
    9, -4, -4, 3%, 0.7, 0.8, -2.2, .
Cc1cc(NC(=O)Cn2nc(C(F)(F)F)c3c2CCC3)n(-c2ccccc2)n1
    5, -3, 5, 30%, 0.8, 0.6, 3.5, .
CCCCC1=NN(C(=O)c2cccnc2)C(O)(C(F)(F)F)C1 (stereo not given)
    -5, 5, -1, -8%, 1.1, 4.2, 13, 0.5
COc1ccc2[nH]c(=O)c(CN(c3ccccc3OC)S(=O)(=O)c3ccccc3)cc2c1
    20, 6, 5, ., -0.3, 1.2, 1.2, -4.7
COc1ccc(C2=NOC(COc3ccc4c(C)cc(=O)oc4c3)C2)c(OC)c1 (stereo not given)
    11, 5, 0, 17%, 0.4, 4.3, -11, 2.0
COc1cccc(C(=O)O/N=C2\CCS(=O)(=O)c3sccc32)c1
    -7, -12, -2, 3%, -1.0, 0.5, -3.7, -2.3
Cc1nn(Cc2ccccc2Cl)c(C)c1C(=O)NCc1ccco1
    7, 1, 4, -3%, 0.5, -2.2, -0.3, .
CCCCOc1ccccc1NC(=O)CC1Nc2ccccc2NC1=O (stereo not given)
    -8, 0, 33, ., 0.4, 13, 4.7, .
Nc1nnnn1/N=C/c1cccc(OCc2ccccc2Cl)c1
    12, 0, 7, 0%, -1.4, -0.2, 14, .
COCCn1nnnc1CN(CCc1ccc(OC)c(OC)c1)Cc1cc2ccc(C)cc2[nH]c1=O
    43, -2, -1, -1%, -0.7, 5.1, -3.3, .
CS(=O)(=O)N(CC(N)=O)c1ccc(F)c(Cl)c1
    0, -3, -8, 2%, -0.1, -2.9, -6.6, .
C#CCOCCOCCOCCNc1nc(N2CCN(C(=O)[C@H]([C@@H](C)O)n3cc(CCCCN)nn3)CC2)nc(N2CCN(C(=O)[C@H]([C@@H](C)CC)n3cc(CCCCN)nn3)CC2)n1
    ., -3, ., ., -0.8, ., -3.9, -19
Cc1ccc(C2(C)NC(=O)N(CC(=O)Nc3ccc4c(c3)CCC4)C2=O)cc1 (stereo not given)
    ., -3, ., -1%, -0.2, ., -6.8, ?
